From PubChem
Tg IFNy HTS: T. gondii growth inhibition with IFN-gamma, primary screen, cell-based; 69,000 tested, 3.8% active; activity change, negative = inhibition, %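 (about 20 µM by stock and volumes)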; Toxoplasma gondii growth in IFN-gamma-treated host cells; active compounds read low; reference of the scale not given here; AID 1259416, 2018;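 active means below -70%; inconclusive means fit judged invalid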;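 further: host cells are HeLa cells infected with Toxoplasma gondii; parasite growth read as luciferase light; one replicate is shown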
Numbers without * were called inactive; i = inactive; ? = inconclusive; & = joins results of further samples. This is a subset; the hit share may differ from the screen's.

Molecule | Tg IFNy HTS
Cn1nnc2c1CCN(C(=O)c1ccco1)C2COCC1CC1 (stereo not drawn) | 2.0
C[C@H]1CN([C@@H](C)CO)C(=O)c2cccc(NC(=O)c3ccc(-c4nccs4)cc3)c2O[C@H]1CN(C)C(=O)Nc1ccc(C(F)(F)F)cc1 | -17.9
O=C(NCCc1cc(Cl)c2c(c1)OCCO2)c1ccccc1CN1CCCC1 | -23.2
O=C(CCn1c2ccccc2c2ccccc21)N1CCn2cnnc2C1 | -4.8
CNC(=O)c1cc(=O)n(CC(=O)Nc2ccc(F)cc2C)c2ccccc12 | 11.0
O=C(NC1CC1)N1CCC2(CC(Nc3ccccn3)CO2)C1 (stereo not drawn) | -18.9
CNC(=O)CC(C)N(C)Cc1cnc(-c2cccc(C)c2)nc1 (stereo not drawn) | 110.4
O=C(CN1CCCC(O)(CO)C1)NCc1ccccn1 (stereo not drawn) | -48.1
Cc1cc(NC(=O)C2CCCC2)n(-c2ncnc3c2cnn3-c2cccc(Cl)c2)n1 | -19.3
CC(=O)O[C@@H]1CC[C@@]2(C)C(C[C@@H](OC(C)=O)[C@@]3(C)C4=CC(=O)O[C@@H](c5ccoc5)[C@]4(C)CCC23)C1(C)C (stereo partly drawn) | -2.6
COCc1ccc(C(=O)NC(C)c2nc3ccccc3[nH]2)o1 (stereo not drawn) | 19.9
COC(=O)c1noc(C)c1-c1ccn[nH]1 | -12.9
O=C(Nc1cccc(F)c1)N1C[C@H]2[C@@H](c3ccccc31)[C@H](CO)N2C(=O)Cc1ccccn1 | -2.8
COc1cccc(-n2cc(CN(C)Cc3cc(C(C)(C)C)n[nH]3)cn2)c1 | 14.0
CC(=O)N[C@@H]1C[C@H](Cc2ccccc2)O[C@H](c2cnc(-c3ccccn3)nc2)C1 | -5.7
Cc1ccc(C)c(NC(=O)CC(=O)N(C)Cc2n[nH]c3c2CCC3)c1 | -46.3
c1ccc(CNc2nccc(C3CCCC3)n2)nc1 | -5.8
COc1ccc(CN2CCCC(c3cc(=O)[nH]c(-c4cccnc4)n3)C2)cc1 (stereo not drawn) | 62.5
COc1cccc(S(=O)(=O)N2CCC(c3nc(C(=O)N4CCOCC4)c(C)o3)CC2)c1 | 25.7
COC(=O)CN1CCN(C(=O)c2cnc(-c3ccccc3)nc2)C(C)C1=O (stereo not drawn) | 6.0
Cc1nc(CN2C(=O)CCC3C2CCN3c2ncccn2)cs1 (stereo not drawn) | 3.3
Cc1ccc(-c2nnc(-c3nc(N4CCCC4)c4ccccc4n3)o2)cc1 | 105.7
COCc1nc(NCC2(c3ccccc3)CCOCC2)c2cnn(C)c2n1 | 4.8
CN(Cc1ccccc1)C1COC2(CCN(C(=O)CC(C)(C)C)CC2)C1 (stereo not drawn) | -11.3
Cc1ccc(NC(=O)N2CCC3(CC2)Nc2ccccc2-n2cccc23)cc1Cl | i
Cc1nnc(-c2cccc(NS(=O)(=O)NCc3ccccc3)c2)s1 | -0.8
COc1ccccc1C#Cc1ccc2c(c1)[C@H]1[C@H](CCN1C(=O)c1ccncc1)[C@@H](CO)N2 | -49.6
CO[C@H]1CCN(S(=O)(=O)C2CC2)[C@H]1Cc1ccccc1 | -4.5
CC(C)NC(=O)N(C)C[C@H]1Oc2ccc(NC(=O)Cc3ccccc3)cc2CC(=O)N([C@H](C)CO)C[C@H]1C | -5.2
COC(=O)c1[nH]ncc1CN1CCC(Cc2ccc(F)cc2)CC1 | 1.9
CC(c1ccccc1)n1nnnc1N1CC(c2ccncc2)C1 (stereo not drawn) | -37.1
C=CCOCC1CN(Cc2csc(C)n2)Cc2nnn(C)c21 (stereo not drawn) | 90.4
COc1ccc(CN(C)C[C@H]2OCCCC[C@@H](C)Oc3ccc(NC(=O)C4CCCCC4)cc3C(=O)N([C@@H](C)CO)C[C@H]2C)cc1 | 281.9
O=C1c2ccccc2C(=O)N1c1cscc1S(=O)(=O)c1ccc(Cl)cc1 | 24.7
CS(=O)(=O)NC1CCN(C(=O)c2ccccc2C2CCNC2)CC1 (stereo not drawn) | 0.7
O=C(NCC1CCCCC1)[C@@H]1[C@@H](CO)[C@@H]2Cn3c(ccc(-c4ccc(F)cc4)c3=O)[C@H]1N2 | -20.4
O=C(Nc1cccc(-n2cccn2)c1)C1CCCN1S(=O)(=O)c1cccs1 (stereo not drawn) | 12.3
Cc1ccc(-c2cncc(C(=O)N3CCCCC3)n2)c(-n2cccn2)c1 | ?
CCOc1ccc(Nc2nc(-c3nnc(-c4ccc(F)cc4)o3)nc3ccccc23)cc1 | 13.2
Cc1cccc(-c2nc(C)c(CCNC(=O)C(=O)Nc3cccc(Cl)c3C)s2)c1 | -6.3

The list goes on; the last seven above are carried over.
Molecule | Tg IFNy HTS
O=C1c2ccccc2C(=O)N1c1cscc1S(=O)(=O)c1ccc(Cl)cc1 | 24.7
CS(=O)(=O)NC1CCN(C(=O)c2ccccc2C2CCNC2)CC1 (stereo not drawn) | 0.7
O=C(NCC1CCCCC1)[C@@H]1[C@@H](CO)[C@@H]2Cn3c(ccc(-c4ccc(F)cc4)c3=O)[C@H]1N2 | -20.4
O=C(Nc1cccc(-n2cccn2)c1)C1CCCN1S(=O)(=O)c1cccs1 (stereo not drawn) | 12.3
Cc1ccc(-c2cncc(C(=O)N3CCCCC3)n2)c(-n2cccn2)c1 | ?
CCOc1ccc(Nc2nc(-c3nnc(-c4ccc(F)cc4)o3)nc3ccccc23)cc1 | 13.2
Cc1cccc(-c2nc(C)c(CCNC(=O)C(=O)Nc3cccc(Cl)c3C)s2)c1 | -6.3
C[C@H]1CN([C@@H](C)CO)C(=O)Cc2cc(NC(=O)CCC(F)(F)F)ccc2O[C@H]1CN(C)CC1CC1 | 5.9
CC(=O)N1CCC(C(=O)NCc2ccccc2)(N(C(=O)c2ccccc2Br)c2ccc(C)cc2)CC1 | -50.3
COc1ccc(-c2nc(C)c(CCNC(=O)C(=O)Nc3cccc(F)c3)s2)cc1OC | 152.3
CC1=C(C(=O)N2CCc3ccccc3C2)C(c2nc[nH]c2C)NC(=O)N1 (stereo not drawn) | 91.7
c1ccc(Oc2cccnc2)cc1 | -0.8
CS(=O)(=O)NCC1CCN(Cc2cc3ccccc3[nH]c2=O)C1 (stereo not drawn) | -2.9
COc1ccc(Cl)cc1NC(=O)Cn1c(=O)cc(C(=O)N2CCC(C)CC2)c2ccccc21 | -32.6
COCC(=O)N1[C@H](C#N)[C@H](c2ccc(C#CCC3CCCC3)cc2)[C@H]1CO | 40.0
C[C@@H]1CCCCO[C@@H](CN(C)CC2CCCCC2)[C@@H](C)CN([C@H](C)CO)C(=O)c2cc(NS(C)(=O)=O)ccc2O1 | 25.0
Cc1nc2sccn2c1CN1CCC2(CC1)C(=O)N(CC(C)C)C(=O)N2C | 5.4
CCN1CCN(c2nc3c(C)ccc(C)c3cc2C#N)CC1 | 16.7
S=C(Nc1ccccc1)Nc1ccccn1 | 61.2
CCn1c(C2CCCNC2)nn(Cc2cnn(-c3ccccc3F)c2)c1=O (stereo not drawn) | 5.0
CC(C)c1cc(C(=O)N2CC=C(n3c(=O)[nH]c4ccccc43)CC2)n(C)n1 | -2.6
O=c1oc2cc(O)ccc2cc1-c1csc(-c2ccc(Br)cc2)n1 | 1.0
CN(C)c1ccc(-c2nc3c([nH]2)c(=O)n(C)c(=O)n3C)cc1 | 27.9
CCc1cnc(N2[C@H](C#N)[C@H](c3ccc(C#Cc4ccccc4F)cc3)[C@H]2CO)s1 | -54.9
COCCC1CCCCN1Cc1nc(-c2ccc(C(F)(F)F)cc2)oc1C (stereo not drawn) | 17.3
COc1cccc(C2(NC(=O)CCN3Cc4ccccc4C3=O)CCCC2)c1 | 61.5
CCOc1ccc(-c2nc(Cn3ccn4nc(-c5ccc6c(c5)OCO6)cc4c3=O)c(C)o2)cc1 | 4.0
CCC(CO)N(Cc1ccsc1)C(=O)c1cccc(C)c1Cl (stereo not drawn) | 1.9
Cc1cn(CC(=O)NC(C)CN2CCc3ccccc3C2)c(=O)[nH]c1=O (stereo not drawn) | 1.5
CC(=O)CC1N(Cc2ccccc2)C(=O)C2N(c3ccc(C)c(C)c3)C(=O)C3CC(=O)OC312 (stereo not drawn) | 123.1
COc1ccc(OC)c(C(O)CNC(=O)CN)c1 (stereo not drawn) | 9.1&-38.2
CCN1C(=O)N(CCCc2cccnc2)C(=O)C12CCN(Cc1cc3ccccc3s1)CC2 | -2.8
Cc1cnc(CN(C)C(=O)CN(c2cccc(F)c2)S(C)(=O)=O)[nH]1 | -0.1
Cc1ccc(OC(=O)N(C)C[C@@H]2OCc3ccccc3-c3ccccc3C(=O)N([C@@H](C)CO)C[C@H]2C)cc1 | -20.9
COc1ccc2c3c(n(C)c2c1)[C@@H](CO)N(C(=O)CN(C)C)CC31CN(Cc2nccs2)C1 | -108.6*
COc1cc(OC)c(NC(=O)N2CCC3(CC2)Nc2cc(C)ccc2-n2cccc23)cc1Cl | 342.1
C[C@@H]1CN([C@@H](C)CO)C(=O)CCCn2cc(nn2)CO[C@@H]1CN(C)C(=O)Nc1ccc2c(c1)OCO2 | 251.9
CN(Cc1ccsc1)C(=O)CN1CC(=O)NC1=O | 5.6
Cc1nc(Cl)c(Cc2ccccc2)c(N2CCCC2)n1 | 22.3
CCOc1ccccc1C(=O)N1CCC(c2nc(C(=O)N(C)C)c(C)o2)CC1 | -17.8
CCCSc1ncc(CN2CCCn3cncc3C2)cn1 | 96.3
C=C1C(=O)CC2CC3OC3(C)CCC3OC3(C)C[C@H](OC(C)=O)C1C2(C)C (stereo partly drawn) | -69.5
COc1cccc(S(=O)(=O)Nc2ccc3c(c2)C(=O)N(C)C[C@H](OC)[C@@H](C)CN(Cc2ccccc2F)[C@@H](C)CO3)c1 | ?
C[C@@H]1CCCCO[C@H](CN(C)S(=O)(=O)c2ccc(F)cc2)[C@@H](C)CN([C@H](C)CO)C(=O)c2cc(NC(=O)CCCCCC(=O)Nc3ccccc3N)ccc2O1 | -7.4
CCc1nnc(-c2ccc3ccn(CC(=O)NCc4ccccn4)c3c2)o1 | 54.8
O=S1(=O)CCC(NCCCN2CCOCC2)C1 (stereo not drawn) | -10.1
CN(C)C(=O)N1CCCn2cnc(COCC3CC3)c2C1 | 1.9
Cc1ccc(NC(=O)C(=O)NCCc2csc(-c3ccc(C(F)(F)F)cc3)n2)cc1Cl | 307.0
Cc1ccc(-c2noc(C3CCN3C(=O)c3ccc(=O)[nH]n3)n2)s1 (stereo not drawn) | 4.3
Cc1cccc(C(=O)N2CCC3(CC2)OC(C(=O)N2CCCC2)Cn2ccnc23)n1 (stereo not drawn) | 15.1
CNS(=O)(=O)c1cc(NCc2cc3ccccc3s2)cc(C(=O)Nc2ccc(OC)cc2)c1 | 5.5
CC(C)C(=O)N1CCCC(c2nc(CCNC(=O)C3CCC3)cs2)C1 (stereo not drawn) | 56.9
CCCC(=O)N1CCc2c([nH]c3ccccc23)C1c1ccc(OC)cc1 (stereo not drawn) | i
CCOC(=O)c1c(SC)nc2ccc(Cl)cc2c1N1CCOCC1 | -53.5
COc1ccc(-c2nc(NCc3ccccc3OC)c3ccccc3n2)cc1 | -34.0
C[C@@H]1CN([C@@H](C)CO)C(=O)c2c(c3ccccc3n2C)-c2ccccc2CO[C@H]1CN(C)C(=O)[C@@H]1CCCN1C | -49.0
O=C(c1ccc(-n2cnnc2)cc1)N1CCCC(OCc2ccccn2)C1 (stereo not drawn) | 89.5
C[C@H]1CN([C@@H](C)CO)C(=O)Cc2cc(NS(=O)(=O)c3ccc(Cl)cc3)ccc2O[C@H]1CN(C)C(=O)Nc1ccc(C(F)(F)F)cc1 | 5.9
O=C(NCCc1csc(-c2ccccc2)n1)[C@H]1CSCN1S(=O)(=O)c1ccccc1F | -46.8
Cc1noc(C)c1NC(=O)Nc1ccc2c(c1)C(=O)N([C@@H](C)CO)C[C@@H](C)[C@H](CN(C)S(=O)(=O)c1cccs1)OCCCC[C@@H](C)O2 | i
COCC1(C(=O)N(Cc2cccc(Cl)c2)CC(C)C)CC1 | -37.7
N#C[C@H]1[C@@H](c2ccccc2-c2ccccc2)[C@@H](CO)N1C(=O)Cc1ccncc1 | -15.3
COc1ccc2c3c([nH]c2c1)[C@@H](CO)N(Cc1ccc(Cl)cc1)CC31CCN(Cc2nccs2)CC1 | -49.9
COc1cccc(Cl)c1-c1cnc(-n2cnnc2)cc1C | -15.5
CC(C)C(=O)NCc1csc(C2CCCN(C(=O)c3cc(F)cc(F)c3)C2)n1 (stereo not drawn) | 40.9
CN1CCC(Cc2noc(CCN3CCCCO3)n2)CC1 | 2.5
C[C@H](CO)N1C[C@H](C)[C@H](CN(C)C(=O)Nc2ccccc2)OCCCC[C@H](C)Oc2ccc(NC(=O)Nc3ccccc3)cc2C1=O | -67.9

(cont.)
Molecule | Tg IFNy HTS
O=C(NCCc1csc(-c2cccc(F)c2)n1)C(=O)Nc1ccccc1 | -34.0
Cc1nc2ccc(NC(=S)N3CCC(c4ccccc4)C3)cc2nc1C (stereo not drawn) | 13.4
Clc1ccc(-c2nc(NCCCN3CCc4ccccc4C3)c3ccccc3n2)cc1 | 64.1
C/C(=C\c1ccco1)CN(Cc1ccccn1)CC1CCCO1 (stereo not drawn) | 7.7
O=C(NCC1CCN(Cc2cccnc2)C1)Nc1ccccc1Cl (stereo not drawn) | 6.1
Cc1ccc(NC(C)(C(=O)NCC(=O)NC(C)C)c2ccccc2)cc1 (stereo not drawn) | 23.2
Cc1ccc2nc(CN(C)C(=O)CCC(=O)NC3CCCCCC3)[nH]c2c1 | 77.7
CCn1ncc(CN2CCC(C3CC(C(=O)Nc4ccc(F)cc4)CN3C)CC2)c1C (stereo not drawn) | -29.1
O=C(O)Cc1cccc(OCCCN(Cc2cccc(C(F)(F)F)c2Cl)CC(c2ccccc2)c2ccccc2)c1 | 6.6&-31.0
CC(C)COC(=O)N(C)C[C@H]1OCc2ccccc2-c2ccccc2C(=O)N([C@@H](C)CO)C[C@@H]1C | -30.4
O=C(NC(=O)N1CCSC1)c1c(F)cccc1Cl | -38.2
